Screens deposited in PubChem by Broad Institute.
Vaccinia stage: blocks a specific stage of Vaccinia orthopoxvirus infection | Vaccinia-infected cells, mCherry/Venus stage reporter fluorescence; active compounds read low; some inactives read as strong as hits | actives 0.01% (n = 89,000) | AID 1053133 | activity change (mCherry), % (concentration not given with the values);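 active = mCherry past -33% and 40 or more points under the early reporter, replicates agreeing; inconclusive = past -33% without that gap or agreement; tested in A549 cells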;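 also: scaled between vehicle wells and reference inhibitor wells; 23 nL library stock went into each well; one replicate is shown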
Vaccinia stage Venus: further read-out of Vaccinia stage, marked with its call; activity change (Venus), %; measured here: Venus reporter, other viral stage;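 negative = less Venus signal; first of two replicates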
* = called active by the depositor; ? = inconclusive; . = not tested or not shown. An excerpt (hit frequency here may not be typical).

1. C/C=C/c1ccc2c(c1)O[C@H](CN(C)C(=O)NC1CCCCC1)[C@H](C)CN([C@H](C)CO)S2(=O)=O
2. CCC(=O)Nc1ccc2c(c1)OC[C@H](C)N(Cc1ccncc1)C[C@@H](C)[C@H](OC)CN(C)C2=O
3. C[C@@H]1CN([C@H](C)CO)S(=O)(=O)c2ccc(-c3ccc(C(=O)N(C)C)cc3)cc2O[C@H]1CN(C)Cc1ccccc1C(=O)O
4. C[C@@H]1CN([C@@H](C)CO)C(=O)c2cccc(NC(=O)C3CCOCC3)c2O[C@@H]1CN(C)CC1CCCCC1
5. C[C@H](NC(=O)C[C@@H]1CC[C@H]2[C@@H](COc3ccc(NS(=O)(=O)c4ccc(Cl)cc4)cc3C(=O)N2C)O1)c1ccccc1
6. O=C(C1=C[C@H](c2coc3ccccc3c2=O)C[C@H](OCc2ccc(CO)cc2)O1)N1CCCCCCC1
7. CO[C@@H]1CN(C)C(=O)c2ccc(NC(=O)c3cc(C)on3)cc2OC[C@H](C)N(C(C)=O)C[C@H]1C
8. COc1ccc2c3c([nH]c2c1)[C@@H](CO)N(C(=O)CC1CC1)CC31CN(C(=O)c2ccccc2)C1

screen / no.,1,2,3,4,5,6,7,8
Vaccinia stage,-5,8,8,13,-2,11,10,3
Vaccinia stage Venus,-16,25,-7,6,10,1,10,-5

9. CC(C)NC(=O)N(C)C[C@H]1Oc2ccc(NC(=O)Nc3ccc(F)cc3)cc2CC(=O)N([C@@H](C)CO)C[C@H]1C
10. CCCC#Cc1cnc2c(c1)C(=O)N([C@@H](C)CO)C[C@@H](C)[C@@H](CN(C)C(=O)c1ccc(F)cc1)O2
11. CC(C)(C)[C@H]1C=C(C(N)=O)O[C@@H](OCc2ccc(CO)cc2)C1
12. COc1ccc(NC(=O)Nc2ccc3c(c2)C(=O)N([C@H](C)CO)C[C@H](C)[C@H](CN(C)C(=O)NC2CCCCC2)O3)cc1
13. CCNC(=O)C[C@H]1C=C[C@@H](NC(=O)NC2CCCCC2)[C@@H](CO)O1
14. COc1ccccc1C(=O)N1C[C@@H]2[C@H](c3ccccc31)[C@H](CO)N2C(=O)Cc1cccnc1
15. CO[C@@H]1CN(C)C(=O)c2ccc(NS(C)(=O)=O)cc2OC[C@@H](C)N(CC2CC2)C[C@@H]1C
16. CCCC#Cc1ccc([C@@H]2[C@@H](C#N)N(C(=O)C3CC3)[C@H]2CO)cc1

screen / no.,9,10,11,12,13,14,15,16
Vaccinia stage,0,-14,-8,11,-4,-9,-9,14
Vaccinia stage Venus,2,-7,-2,18,4,-5,-6,10

Some of the entries above in another layout:
Fields: Vaccinia stage	Vaccinia stage Venus
12	COc1ccc(NC(=O)Nc2ccc3c(c2)C(=O)N([C@H](C)CO)C[C@H](C)[C@H](CN(C)C(=O)NC2CCCCC2)O3)cc1
    11	18
13	CCNC(=O)C[C@H]1C=C[C@@H](NC(=O)NC2CCCCC2)[C@@H](CO)O1
    -4	4

Going on with the list.
17. C/C=C/c1cnc2c(c1)C(=O)N([C@@H](C)CO)C[C@H](C)[C@@H](CN(C)S(=O)(=O)c1cccs1)O2
18. C[C@@H]1CCCCO[C@@H](CN(C)S(=O)(=O)c2cccs2)[C@@H](C)CN([C@@H](C)CO)C(=O)c2cc(NC(=O)Nc3ccccc3)ccc2O1
19. COC(=O)c1ccc(CN2CC(=O)N3[C@H](C2)[C@@H](c2ccc(Br)cc2)[C@@H]3CO)cc1
20. C[C@@H]1CN([C@H](C)CO)C(=O)c2cc(C3=CCCCC3)cnc2O[C@H]1CN(C)C(=O)c1ccc(F)cc1
21. O=C(CC1CC1)N1CC(=O)N2[C@H](CO)[C@H](c3ccc(C#Cc4cccc(F)c4)cc3)[C@H]2C1
22. O=C(C[C@@H]1C[C@@H]2c3cc(NC(=O)Nc4ccc(F)cc4)ccc3O[C@@H]2[C@H](CO)O1)NCC(F)(F)F
23. C[C@@H]1CN([C@@H](C)CO)C(=O)c2cc(NC(=O)c3ccncc3)ccc2O[C@@H](C)CCCCO[C@H]1CN(C)Cc1ccncc1
24. C[C@@H]1CN([C@@H](C)CO)C(=O)c2cc(NS(=O)(=O)c3cn(C)cn3)ccc2O[C@@H]1CN(C)S(=O)(=O)c1ccccc1

screen / no.,17,18,19,20,21,22,23,24
Vaccinia stage,-3,30,-3,-15,?,-1,25,8
Vaccinia stage Venus,-5,27,-4,-10,.,-4,6,1

25. C[C@H](CO)N1C[C@H](C)[C@H](CN(C)S(=O)(=O)c2ccccc2)Oc2c(NC(=O)Nc3ccc(F)cc3)cccc2C1=O
26. O=C(C[C@@H]1C[C@H]2c3cc(NC(=O)Nc4ccccc4)ccc3O[C@H]2[C@@H](CO)O1)NC1CCCC1
27. C[C@H](NC(=O)C[C@H]1CC[C@H]2[C@@H](COC[C@H](O)CN2C(=O)Nc2cccc(F)c2)O1)c1ccccc1
28. O=C(c1cccc(F)c1)N1CCCCN2[C@H](CO)[C@H](c3ccc(-c4cncnc4)cc3)[C@@H]2C1
29. COc1ccccc1CNC(=O)C[C@H]1C=C[C@H](NC(=O)CC2CC2)[C@H](CO)O1
30. C[C@H](CO)N1C[C@H](C)[C@H](CN(C)Cc2ccc(-c3ccccc3)cc2)Oc2cc(C#C[C@@H](C)O)ccc2S1(=O)=O
31. CO[C@H]1CN(C)C(=O)c2ccc(NC(=O)c3ccccc3F)cc2OC[C@H](C)N(CC2CCOCC2)C[C@H]1C
32. C[C@H](CO)N1C[C@H](C)[C@H](CN(C)S(=O)(=O)c2ccc(F)cc2)Oc2ccc(NC(=O)Nc3cccc4ccccc34)cc2CC1=O

screen / no.,25,26,27,28,29,30,31,32
Vaccinia stage,-31,28,-14,15,6,?,5,-4
Vaccinia stage Venus,-22,10,-13,10,7,.,5,2

Record cards, from the list above. Values in the order: Vaccinia stage	Vaccinia stage Venus
COc1ccccc1CNC(=O)C[C@H]1C=C[C@H](NC(=O)CC2CC2)[C@H](CO)O1 in the list: 6	7
C[C@H](NC(=O)C[C@H]1CC[C@H]2[C@@H](COC[C@H](O)CN2C(=O)Nc2cccc(F)c2)O1)c1ccccc1 in the list: -14	-13

Next part
33. CN1C(=O)c2cc(NC(=O)C3CC3)ccc2OC[C@H]2O[C@@H](CC(=O)NCCc3ccncc3)CC[C@@H]21
34. C[C@@H]1CN([C@@H](C)CO)C(=O)c2cccc(NC(=O)Nc3ccc(F)cc3)c2O[C@H]1CN(C)C
35. C[C@@H]1CN([C@@H](C)CO)C(=O)Cc2cc(NS(=O)(=O)c3cccs3)ccc2O[C@@H]1CN(C)Cc1ccc(C(=O)Nc2ccccc2N)cc1
36. C[C@@H]1CCCCO[C@H](CN(C)C(=O)CCCN(C)C)[C@@H](C)CN([C@@H](C)CO)C(=O)c2cc(NC(=O)NC3CCCCC3)ccc2O1
37. O=C(C[C@@H]1C[C@H]2c3cc(NC(=O)CC4CC4)ccc3O[C@H]2[C@H](CO)O1)NCc1ccccc1F
38. C[C@H]1CN([C@@H](C)CO)C(=O)Cc2cc(NC(=O)CCCCCC(=O)Nc3ccccc3N)ccc2O[C@@H]1CN(C)Cc1ccc(C(F)(F)F)cc1
39. O=C(C[C@@H]1CC[C@@H]2[C@H](COC[C@H](O)CN2C(=O)Nc2ccc(Cl)cc2)O1)NCC1CCCCC1
40. O=C(NCC[C@@H]1CC[C@H](NS(=O)(=O)Cc2ccccc2)[C@@H](CO)O1)C1CCCC1

screen / no.,33,34,35,36,37,38,39,40
Vaccinia stage,11,8,16,23,8,-19,-28,-3
Vaccinia stage Venus,12,0,9,12,4,-9,-7,5

41. C[C@H](CO)N1C[C@H](C)[C@H](CN(C)S(=O)(=O)c2ccc(C#N)cc2)Oc2ncc(C#Cc3ccc(C(F)(F)F)cc3)cc2C1=O
42. CCN1[C@@H]2c3ccc(-c4ccc(F)cc4)c(=O)n3C[C@@H]2[C@@H](CO)[C@@H]1C(=O)NC1CCC1
43. COc1ccc(NC(=O)N(C)C[C@H]2Oc3ncc(C#C[C@H](C)O)cc3C(=O)N([C@@H](C)CO)C[C@H]2C)cc1
44. COc1cccc(-c2cnc3c(c2)C(=O)N([C@@H](C)CO)C[C@H](C)[C@H](CN(C)C(=O)CN(C)C)O3)c1
45. O=C(c1cccnc1)N1CC[C@@H]2[C@@H](CO)Nc3ccc(-c4ccccc4)cc3[C@@H]21
46. COc1ccc2c3c([nH]c2c1)[C@@H](CO)N(C(=O)CC1CC1)CC31CCN(Cc2cccnc2)CC1
47. C[C@H]1CN([C@@H](C)CO)C(=O)c2cccc(NC(=O)c3cnccn3)c2O[C@H]1CN(C)C(=O)NC1CCCCC1
48. C[C@@H]1CCCCO[C@@H](CN(C)Cc2ccc(C(F)(F)F)cc2)[C@@H](C)CN([C@@H](C)CO)C(=O)c2cc(NS(=O)(=O)c3ccc(Cl)cc3)ccc2O1

screen / no.,41,42,43,44,45,46,47,48
Vaccinia stage,?,-6,15,7,2,9,10,?
Vaccinia stage Venus,.,-5,10,2,1,-11,10,.

49. COC(=O)C[C@@H]1CC[C@H]2[C@@H](COc3ccc(NS(=O)(=O)c4cccc(F)c4)cc3C(=O)N2C)O1
50. O=C(Nc1ccc(C(F)(F)F)cc1)N[C@@H]1CC[C@H](CCNC(=O)c2ccccc2F)O[C@H]1CO
51. CC(C)CC#Cc1ccc2c(c1)O[C@@H](CN(C)C(=O)C1CCC1)[C@H](C)CN([C@H](C)CO)S2(=O)=O
52. Cc1noc(C)c1S(=O)(=O)Nc1ccc2c(c1)C(=O)N([C@H](C)CO)C[C@H](C)[C@@H](CN(C)S(=O)(=O)c1cn(C)cn1)OCCCC[C@@H](C)O2
53. C[C@@H]1CCCCO[C@@H](CN(C)C(=O)C2CCCCC2)[C@@H](C)CN([C@H](C)CO)C(=O)c2cc(NC(=O)CCCCCC(=O)Nc3ccccc3N)ccc2O1
54. COc1ccc(S(=O)(=O)N(C)C[C@@H]2Oc3c(cccc3N(C)C)C(=O)N([C@H](C)CO)C[C@@H]2C)cc1
55. COCC(=O)N1[C@@H](C#N)[C@@H](c2ccccc2C2=CCCCC2)[C@@H]1CO
56. C/C=C/c1cnc2c(c1)C(=O)N([C@H](C)CO)C[C@H](C)[C@@H](CN(C)C(=O)C1CCCCC1)O2

screen / no.,49,50,51,52,53,54,55,56
Vaccinia stage,5,-11,7,23,20,22,-2,5
Vaccinia stage Venus,2,-8,0,8,6,12,-2,-1

57. CCCNC(=O)N1CC2(C1)CN(C(=O)CC)[C@H](CO)c1c2c2ccc(OC)cc2n1C
58. O=C(C[C@@H]1C[C@H]2c3cc(NC(=O)c4ccc5c(c4)OCO5)ccc3O[C@H]2[C@H](CO)O1)NCc1cccnc1
59. CS(=O)(=O)N1[C@H](C#N)[C@@H](c2ccccc2-c2ccc(F)cc2)[C@@H]1CO
60. C[C@H]1CN([C@@H](C)CO)S(=O)(=O)c2ccc(-c3cncnc3)cc2O[C@H]1CN(C)Cc1ccccn1
61. C[C@@H]1CCCCO[C@@H](CN(C)Cc2ccccc2)[C@@H](C)CN([C@@H](C)CO)C(=O)c2cc(NC(=O)Nc3ccc4c(c3)OCO4)ccc2O1
62. C[C@@H]1CCCCO[C@@H](CN(C)C(=O)c2ccccc2)[C@@H](C)CN([C@H](C)CO)C(=O)c2cc(NS(=O)(=O)c3cn(C)cn3)ccc2O1
63. C[C@H](CO)N1C[C@H](C)[C@H](CN(C)S(=O)(=O)c2ccccc2)Oc2ncccc2C1=O
64. C[C@@H]1CN([C@H](C)CO)C(=O)c2cc(Br)cnc2O[C@@H]1CN(C)C(=O)c1ccccc1F

screen / no.,57,58,59,60,61,62,63,64
Vaccinia stage,19,7,-4,20,?,34,2,5
Vaccinia stage Venus,4,13,0,6,.,14,0,0

65. C[C@@H]1CN([C@@H](C)CO)C(=O)c2cccc(NS(=O)(=O)c3ccc(Cl)cc3)c2O[C@@H]1CN(C)C
66. C[C@H]1CN([C@@H](C)CO)C(=O)c2cc(C3=CCCC3)cnc2O[C@@H]1CN(C)Cc1ccccn1
67. C[C@@H]1CN([C@H](C)CO)C(=O)c2ccccc2-c2ccccc2CO[C@@H]1CN(C)Cc1cccc(O)c1
68. O=C(c1ccccc1F)N1CC[C@@H]2[C@H]1c1cc(C#Cc3ccccc3F)ccc1N[C@@H]2CO
69. CNC(=O)C[C@H]1CC[C@@H]2[C@@H](COc3ccc(NC(=O)Nc4ccccc4F)cc3C(=O)N2C)O1
70. C#Cc1ccc([C@H]2C=C(C(=O)Nc3ccccc3)O[C@@H](OCc3ccc(CO)cc3)C2)cc1
71. C[C@@H]1CN([C@@H](C)CO)C(=O)Cc2cc(NC(=O)Nc3ccc(C(F)(F)F)cc3)ccc2O[C@@H]1CN(C)CC1CC1
72. C[C@H]1CN([C@@H](C)CO)C(=O)Cc2cc(NC(=O)Cc3cn(C)c4ccccc34)ccc2O[C@H]1CN(C)CC1CCCCC1

screen / no.,65,66,67,68,69,70,71,72
Vaccinia stage,2,25,2,-1,6,18,?,-24
Vaccinia stage Venus,-5,0,-8,-5,3,18,.,-25

73. COc1ccc(CN(C)C[C@H]2Oc3c(NC(=O)Nc4c(C)noc4C)cccc3C(=O)N([C@H](C)CO)C[C@H]2C)cc1
74. COc1ccc(-c2ccc3c(c2)O[C@H](CN(C)C(=O)c2ccccc2F)[C@H](C)CN([C@H](C)CO)S3(=O)=O)cc1
75. COc1ccccc1CN(C)C[C@@H]1OCc2ccccc2-c2c(n(C)c3ccccc23)C(=O)N([C@H](C)CO)C[C@@H]1C
76. C[C@H](CO)N1C[C@H](C)[C@H](CN(C)C(=O)NC2CCCCC2)Oc2c(NC(=O)c3nc4ccccc4s3)cccc2C1=O

screen / no.,73,74,75,76
Vaccinia stage,11,?,?,?
Vaccinia stage Venus,4,.,.,.
